ClpP mod: qHTS Assay for Activators of ClpP | ATP-dependent Clp protease proteolytic subunit (Bacillus subtilis (strain 168)), P80244 | purified B. subtilis ClpP, FRET peptide cleavage, 20 min | Potency, µM (series often up to 57.5 µM), for inactives: top-dose activity change, negative = active | 340,000 compounds, 1.9% hits | AID 651965, 2013; active = well fitted falling curve with a large enough effect; inconclusive = small, poorly fitted or top-dose-only effect; inactive = no such curve, though single readings can be large or run the other way; also: potency is read from the fitted curve at half-maximal effect; the source files actives as falling curves though it sought activators and does not explain the sign; nearly all actives have a fitted effect of over 65% in size; many hits overshoot -100%
Target sequence (P80244 whole entry, looked up): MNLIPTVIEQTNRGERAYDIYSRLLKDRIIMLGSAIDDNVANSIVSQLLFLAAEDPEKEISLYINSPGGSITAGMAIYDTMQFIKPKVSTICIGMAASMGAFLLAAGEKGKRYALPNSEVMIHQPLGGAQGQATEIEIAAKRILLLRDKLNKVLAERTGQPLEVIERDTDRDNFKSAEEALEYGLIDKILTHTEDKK
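FRET quenching reversal measured ClpP activation: 10 microg/mL B. subtilis ClpP at pH 8 with the FRET-FV decapeptide, read at 430 nm after 320 nm excitation. The 20-min minus 0-min signal was scaled between DMSO/no-enzyme wells and ADEP (5.8 microM final).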
TRPML1 inh: human mucolipin-1 channel inhibition. TRPML1-inducible cells, Ca2+ dye fluorescence, FDSS; active compounds read low; inhibition of EC80 agonist-evoked calcium signal. activity change, negative = inhibition, % (no concentration beside the values). 390,000 compounds, 0.02% hits. AID 624415; in the data active means activity change below about -50%; inconclusive means about -30% to -50%; inactive means above about -30%;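 also: stimulus is agonist 54-4 at its EC80 concentration; % is scaled to controls: 0 for no effect and ±100 for the full control effect; compound concentration not given in the record; the text of the record puts the active cut at -80%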
Target sequence (Q9GZU1 whole entry, looked up): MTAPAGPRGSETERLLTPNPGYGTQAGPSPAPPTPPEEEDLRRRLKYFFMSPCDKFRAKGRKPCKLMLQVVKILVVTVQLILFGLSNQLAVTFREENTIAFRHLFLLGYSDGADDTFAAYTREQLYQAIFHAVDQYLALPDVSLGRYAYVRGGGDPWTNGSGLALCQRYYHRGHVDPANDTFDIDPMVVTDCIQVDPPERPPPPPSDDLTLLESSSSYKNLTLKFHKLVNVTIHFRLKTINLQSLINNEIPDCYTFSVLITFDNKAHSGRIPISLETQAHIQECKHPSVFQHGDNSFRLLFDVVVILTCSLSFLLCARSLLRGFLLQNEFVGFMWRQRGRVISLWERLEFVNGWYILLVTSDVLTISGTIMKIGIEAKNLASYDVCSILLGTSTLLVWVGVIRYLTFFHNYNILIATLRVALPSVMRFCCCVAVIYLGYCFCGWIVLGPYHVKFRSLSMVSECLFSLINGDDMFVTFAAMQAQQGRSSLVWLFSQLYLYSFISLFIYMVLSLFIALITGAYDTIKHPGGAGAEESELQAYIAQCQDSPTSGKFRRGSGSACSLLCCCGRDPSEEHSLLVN
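Calcium fluorescence in TRPML1-DL cells induced overnight with Tet: a 110 s read after compound pin addition, then a 110 s antagonist read after challenge with 54-4 at 4 uM final (EC80).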
Menin MLL FP FL: displaces fluorescein MLL peptide from human menin; FP activity change, % at 61.4 µM; Fluorescence polarization, fluorescein-MLL peptide displacement from menin; 290,000 tested, under 10 active; AID 1766; inconclusive = falling polarisation curve, or a change in total fluorescence; inactive = total fluorescence flat and polarisation flat or rising; no compound was filed as active; the % refers to the polarisation; negative = inhibition;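 also: % of control where 0% means no effect; inhibitors lower the polarisation; unlabelled MLL peptide was the positive control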
gsp antagonist: gsp mutant antagonism. AID 624288. gsp-mutant cells, cAMP HTRF, 30 min; control for the full effect not named in the record. Potency, µM (highest dose often 76.9 µM), without a hit: top-dose activity change, negative = inhibition, actives largely listed as inhibitors. 340,000 compounds, 0.4% hits; active = falling curve of any shape with a large fitted effect; inconclusive = falling curve, mostly with a smaller effect; inactive = flat or rising curve; cell line not stated here;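 also: intracellular cAMP measured with PDE inhibitor Ro 20-1724 present during compound exposure; potency is read from the fitted curve at half-maximal effect; % is scaled to controls: 0 for no effect and ±100 for the full control effect; nearly all actives have a fitted effect of over 65% in size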
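Measurement of cellular cAMP by homogeneous time-resolved fluorescence following a 30 min compound exposure at 37C. The PDE inhibitor […] was present throughout; the assay buffer was DPBS with 0.05% BSA and 0.005% Tween 20.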
gsp ag: agonists of gsp mutant (McCune-Albright syndrome) | gsp mutant cells, cAMP HTRF, 30 min; control for the full effect not named in the record | 340,000 compounds, 0.13% hits | Potency, µM (titrated, usually from 76.9 µM), for the others: at the top dose activation (cAMP increase), actives largely listed as activators | AID 624287; active = well fitted activation curve with a large enough effect; inconclusive = small, poorly fitted or top-dose-only effect, or another doubt; inactive = no such curve, though single readings can be large or run the other way; cell line not stated here;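 also: phosphodiesterase inhibitor Ro 20-1724 added with compounds to block cAMP breakdown; potency is read from the fitted curve at half-maximal effect; nearly all actives have a fitted effect of over 60% in size; about a fifth of the inactives were tested at one dose only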
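Cells in DMEM/10% FBS with G418 were pretreated with compounds in DMSO plus […] (300 uM stock) for 30 min at 37C. cAMP was measured by HTRF (cAMP-d2 plus anti-cAMP antibody-K) after 30 min at room temperature.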
TRPML1 ag: human mucolipin-1 channel agonism; TRPML1-expressing cells, Ca2+ dye fluorescence, FDSS; host cell line not named in the record; reference of the full effect not given here; activation, % (no concentration beside the values); Q9GZU1; AID 624414; 410,000 compounds, 0.12% hits; in the data active = activation above about 50%; inconclusive = about 30% to 50%; inactive = below about 30%; also: 0% is about no effect; the text of the record puts the active cut at 80%
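Tetracycline-induced TRPML1-DL cells are seeded and incubated overnight before loading with a no-wash Ca2+ dye and quencher. Agonist activity is taken from the 110 s fluorescence read following compound pin-transfer on an FDSS, before EC80 54-4 challenge.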
* = called active by the depositor; [ ] = remark or other dose.

For CC(=O)c1cccc(S(=O)(=O)N2CCN(c3nc4cc(C)cc(C)c4cc3C#N)CC2)c1 the results were ClpP mod -0.5%, TRPML1 inh 17, Menin MLL FP FL 5.9, gsp antagonist 5%, gsp ag 8%[15.4 µM] and TRPML1 ag 1.1.
Screening Cc1cc(C)n2c(SCC(=O)N(CCC#N)c3ccc4c(c3)OCCO4)nnc2n1 returned ClpP mod -6.5%, TRPML1 inh 5, gsp ag -70%[inhibitor] and TRPML1 ag 0.2.
`CN(C)NC(=S)Nc1cccc(C(F)(F)F)c1` gave TRPML1 inh 10, Menin MLL FP FL 0.9, gsp antagonist 9%, gsp ag 5%[15.4 µM] and TRPML1 ag 0.1.
O=C(NC1(Cc2ccccc2)CCN(CCc2cccs2)C1=O)c1ccccc1 (centres undefined) was read as ClpP mod 0.4%, TRPML1 inh 31, gsp antagonist 0%, gsp ag -22% and TRPML1 ag 0.2.
For CN(CC(=O)Nc1ccc(Cl)c(Cl)c1)C(=O)C1CCC1 the results were ClpP mod 7.6%, TRPML1 inh 12, gsp antagonist 4%, gsp ag 5%[15.4 µM] and TRPML1 ag 1.1.
Screening Cc1ccc(S(=O)(=O)CCC(=O)OCC(=O)N2CCN(c3ccccc3)CC2)cc1 returned ClpP mod -15%, TRPML1 inh 2, gsp antagonist -14%, gsp ag -29% and TRPML1 ag -0.9.
Screening Cc1ccc(S(=O)(=O)c2c(C)nn(C(C)(C)C)c2OC(=O)c2cccs2)cc1 returned ClpP mod 3.7%, TRPML1 inh 2, Menin MLL FP FL 2.5, gsp antagonist -27%, gsp ag -23% and TRPML1 ag -0.4.
Screening CCc1cccc(C)c1NC(=O)Cn1cnc2c1c(=O)n(C)c(=O)n2C returned ClpP mod -3.8%, TRPML1 inh 8 and TRPML1 ag -0.4.
Screening O=C(CCCN1C(=O)c2cccc3cccc(c23)C1=O)N1CCc2ccccc2C1 returned ClpP mod inconclusive, TRPML1 inh -1, Menin MLL FP FL 1.3, gsp antagonist -1%, gsp ag -2% and TRPML1 ag 3.9.
Screening CCCNNC(=O)C(O)(c1cccc(C)c1)c1cccc(C)c1 returned ClpP mod -1.8%, TRPML1 inh -16, Menin MLL FP FL 0.3, gsp antagonist 12%, gsp ag -8%[15.4 µM] and TRPML1 ag 0.5.
CCCC(=O)Nc1ccc(Sc2ccc([N+](=O)[O-])cc2)cc1 was read as ClpP mod 0.6%, TRPML1 inh 7, Menin MLL FP FL -2.2, gsp antagonist -22%, gsp ag 17% and TRPML1 ag 0.9.
O=C(Nc1cccc(NC(=O)c2cccnc2)c1)c1ccccc1 was read as ClpP mod -1.4%, TRPML1 inh -5, gsp antagonist -14%, gsp ag inconclusive and TRPML1 ag 0.6.
For CCc1c(C)nc2cc(C)[nH]n2c1=O the results were ClpP mod 22µM*, TRPML1 inh 2, Menin MLL FP FL 9.9, gsp antagonist -4%, gsp ag -22% and TRPML1 ag -0.2.
Screening CCCc1cc(=O)[nH]c(Nc2ccccc2O)n1 returned ClpP mod -1.1%, TRPML1 inh 40 and TRPML1 ag 0.3.
CC(C)[C@H](NC(=O)Nc1ccc(S(N)(=O)=O)cc1)C(=O)O was read as ClpP mod -0.6%, TRPML1 inh -2, Menin MLL FP FL 0.4, gsp antagonist 0%, gsp ag 5% and TRPML1 ag -0.4.
Screening O=[N+]([O-])c1ccc2c(c1)Nc1nc3ccccc3nc1N2 returned ClpP mod 1.0%, TRPML1 inh 2, Menin MLL FP FL 8.5, gsp antagonist -2%, gsp ag 6% and TRPML1 ag 1.7.
For COc1ccc(C(CNC(=O)COc2cc(C)cc(C)c2)N2CCCCC2)cc1 (centres undefined) the results were ClpP mod 0.9%, TRPML1 inh -14 and TRPML1 ag -0.4.
Screening COc1ccc(Oc2nc3c(c(=O)n(C)c(=O)n3C)n2C)cc1 returned ClpP mod 1.2%, TRPML1 inh 7, Menin MLL FP FL -8.2, gsp antagonist 2%, gsp ag -4% and TRPML1 ag 0.6.
`Cc1ccsc1C(=O)OCC(=O)Nc1cccc(F)c1` gave ClpP mod 2.2%, TRPML1 inh 6, gsp antagonist 1%, gsp ag -36%[inhibitor] and TRPML1 ag 0.7.
Screening CCCn1cnnc1CNC(=O)C1CCC(=O)N(CCc2cccc(F)c2)C1 (centres undefined) returned ClpP mod -0.7%, TRPML1 inh 22, Menin MLL FP FL -1.3, gsp antagonist 7%, gsp ag -53%[inhibitor] and TRPML1 ag 1.0.
For CNNCc1ccc(C(=O)NC(C)C)cc1 the results were ClpP mod -6.3%, TRPML1 inh -7, Menin MLL FP FL -7.1[24.8 µM], gsp antagonist -11% and TRPML1 ag 0.8.
For O=C(NC1CCN(Cc2ccccc2)CC1)c1ccc(Cn2c(=O)c3ccccc3n(Cc3ccc(Cl)cc3)c2=O)cc1 the results were ClpP mod -5.5%, TRPML1 inh 16 and TRPML1 ag 1.6.
`COc1ccc(CCNC(=O)CSc2nc3c(sc(=S)n3-c3ccccc3)c(=O)[nH]2)cc1OC` gave ClpP mod 0.5%, TRPML1 inh 5, gsp ag -68%[inhibitor] and TRPML1 ag -0.5.
Cn1c(SCC(=O)NCCNC(=O)CSc2nnc(C(F)(F)F)n2C)nnc1C(F)(F)F was read as ClpP mod -3.0%, TRPML1 inh 2, Menin MLL FP FL 6.0, gsp antagonist -1%, gsp ag 23% and TRPML1 ag -0.4.
Screening CCOC(=O)c1cc(CC)sc1NC(=O)COc1ccc2c(C)cc(=O)oc2c1 returned ClpP mod inconclusive, TRPML1 inh 6, Menin MLL FP FL 2.1, gsp antagonist 7%, gsp ag 4% and TRPML1 ag 0.2.
`Cc1ccc(N(C(C)C(=O)Nc2ccc(S(=O)(=O)N3CCOCC3)cc2)S(C)(=O)=O)cc1C` (centres undefined) gave ClpP mod inconclusive, TRPML1 inh -8, Menin MLL FP FL -4.3, gsp antagonist -2%, gsp ag 15% and TRPML1 ag 0.7.
For C=CCc1cccc(CNc2nc3ccccc3n2CC)c1O the results were ClpP mod -3.0%, TRPML1 inh 5, Menin MLL FP FL 3.7, gsp antagonist inconclusive, gsp ag -2% and TRPML1 ag 0.4.
Screening COc1ccc(/C=N/N=C2/NC(=O)C(CC(=O)NC(N)=O)S2)cc1 (centres undefined) returned TRPML1 inh 1, Menin MLL FP FL 8.1, gsp antagonist 4%, gsp ag 0% and TRPML1 ag 0.0.
O=C(CSc1nc2c([nH]c3ccccc32)c(=O)n1-c1ccccc1)NCc1ccc(F)cc1 was read as ClpP mod -10%, TRPML1 inh -13 and TRPML1 ag -0.7.
CN(C)C(N)=NCCC[C@H](N)C(=O)O was read as ClpP mod -2.5%, TRPML1 inh 4, Menin MLL FP FL 6.6, gsp antagonist -4% and TRPML1 ag 0.3.
Screening CCCNc1nc(Nc2ccc(C)cc2)nc(N2CCCC2)n1 returned ClpP mod -1.8%, TRPML1 inh 8, Menin MLL FP FL -1.1, gsp antagonist 32µM*, gsp ag 16% and TRPML1 ag 7.2.
Screening CC[C@@]1(c2ccccc2C)C(=O)N(C(=O)OC)N1C(=O)OC returned ClpP mod 0.1%, TRPML1 inh 24, Menin MLL FP FL -6.6, gsp antagonist 14% and TRPML1 ag -0.8.
For NNC(=O)CS(=O)(=O)c1ccc(Cl)cc1 the results were ClpP mod 0.6%, TRPML1 inh 25, Menin MLL FP FL 3.9, gsp antagonist 5%, gsp ag -1% and TRPML1 ag 1.8.
Screening COC(=O)c1ccc2c(=O)n(CCN3CCOCC3)c(SCC(=O)Nc3ccccc3Cl)nc2c1 returned TRPML1 inh 4, gsp antagonist -3%, gsp ag 24% and TRPML1 ag -0.6.
For CCn1c(=O)c2ccccc2n(Cc2cccc(C)c2)c1=O the results were ClpP mod -2.7%, TRPML1 inh -6, Menin MLL FP FL 0.9, gsp antagonist 3%, gsp ag -3%[15.4 µM] and TRPML1 ag 2.9.
`O=C(c1cccc(C(F)(F)F)c1)N1CCN(CCc2ccccc2)CC1` gave ClpP mod 0.7%, TRPML1 inh 18, Menin MLL FP FL 0.1, gsp antagonist 17%, gsp ag -19% and TRPML1 ag 6.1.
For Cc1ccc(CN2C(=O)S/C(=C\c3ccccc3OCC(=O)O)C2=O)cc1 the results were ClpP mod -3.8%, TRPML1 inh 25, Menin MLL FP FL 0.2, gsp antagonist -15%, gsp ag -9% and TRPML1 ag 1.8.
For c1ccc2c(N3CCCCC3)nc(N3CCCCC3)nc2c1 the results were ClpP mod -3.1%, TRPML1 inh -1, Menin MLL FP FL 1.8, gsp antagonist 18%, gsp ag 0%[15.4 µM] and TRPML1 ag 0.9.
CC(C)Sc1nc2ccccc2n1CC(N)=O was read as ClpP mod 3.5%, TRPML1 inh -9, Menin MLL FP FL -2.4, gsp antagonist 3%, gsp ag 3% and TRPML1 ag -0.4.
For CCc1ccc(-c2cc(C)no2)cc1S(=O)(=O)N1CCN(c2cccc(C)c2C)CC1 the results were ClpP mod -7.8%, TRPML1 inh 44, gsp antagonist 6%, gsp ag -31%[inhibitor] and TRPML1 ag 0.0.
For O=C(CC(c1ccccc1)c1ccccc1)OCn1nnc2ccccc2c1=O the results were ClpP mod -2.3%, TRPML1 inh 35, Menin MLL FP FL -1.0, gsp antagonist 7%[15.4 µM], gsp ag -1% and TRPML1 ag 1.7.
Screening Cc1cc(NCCO)c2ccccc2n1 returned ClpP mod 2.6%, TRPML1 inh -6, Menin MLL FP FL 1.4, gsp antagonist 14%, gsp ag -1%[15.4 µM] and TRPML1 ag 0.5.
`O=C(Cn1c(-c2cccs2)cc2cc(F)ccc21)N1CCCCC1` gave ClpP mod inconclusive, TRPML1 inh 0 and TRPML1 ag -0.1.
`COCCCN1C(=O)c2[nH]nc(-c3cc(C)ccc3O)c2C1c1ccc(F)cc1` (centres undefined) gave ClpP mod -1.2%, TRPML1 inh 21 and TRPML1 ag 1.6.
`Cn1c(=O)c2c(nc(CCC3CCCC3)n2C)n(C)c1=O` gave ClpP mod -10%, TRPML1 inh 8, gsp antagonist 23%, gsp ag 11µM* and TRPML1 ag -0.1.
For COc1cccc(CCNC(=O)c2cc(COc3ccc(C)c(C)c3)on2)c1OC the results were ClpP mod -2.4%, TRPML1 inh 0, gsp ag -14% and TRPML1 ag 4.7.
COc1ccc2nc(SCC(=O)N3CCCCCC3)c(C#N)cc2c1 was read as ClpP mod -16%, TRPML1 inh 30, Menin MLL FP FL -0.8, gsp antagonist inconclusive, gsp ag -37%[inhibitor] and TRPML1 ag 1.1.

High-throughput results as filed in PubChem.
